Assay outcomes deposited in PubChem BioAssay by National Center for Advancing Translational Sciences (NCATS).
StopGo RLuc: FMDV 2A StopGo reporter, Renilla signal; 120,000 tested, 0.32% active; HEK cells with a luciferase reporter of 2A StopGo recoding; Potency, µM (series often up to 57.5 µM), inactives show at the top dose signal change, negative = less light; AID 1745857; active means well fitted falling curve with a large enough effect; inconclusive means small, poorly fitted or top-dose-only effect; inactive means no such curve, though single readings can be large or run the other way; note: nearly all actives have a fitted effect of over 55% in size; overnight with compound
StopGo FLuc: FMDV 2A StopGo reporter, firefly signal; HEK cells with a luciferase reporter of 2A StopGo recoding; Potency, µM (highest dose often 57.5 µM), inactives show top-dose signal change, negative = less light; 120,000 tested, 0.23% active; AID 1745856; active = well fitted falling curve with a large enough effect; inconclusive = small, poorly fitted or top-dose-only effect; inactive = no such curve, though single readings can be large or run the other way; note: nearly all actives have a fitted effect of over 60% in size; overnight with compound
Starred values were filed as active, the others as inactive; ? = inconclusive; [ ] = another dose, or the depositor's remark. % is set by controls: 0 for no effect and ±100 for the full control effect; potency is the fitted concentration of half-maximal effect. These rows are one share of the data, so the mix of outcomes need not match the whole.

entry	mol	StopGo RLuc	StopGo FLuc
1	C/C(=N\OC(=O)c1ccc(F)cc1)c1ccc(C)cc1	0%	22%
2	CCc1nc2ccccc2n1CC(O)c1ccc(F)cc1 (stereo not given)	11%	-7%
3	O=C(O)CCCCCCCCC#CC#CCCCC[n+]1ccccc1	-11%	3%
4	CCc1ccc(NC(=O)CN(c2ccc(C)cc2)S(=O)(=O)c2c(C)nn(C)c2C)cc1	17%	-35%
5	O=C(CN1CCN(c2ccccc2O)CC1)Nc1ccnn1Cc1cccc(Cl)c1	88%[activator]	-8%
6	CC(C)n1c(NCc2c[nH]c3ccccc23)nc2ccccc21	0%	25%
7	O=C(Nc1ccc(F)c(F)c1)c1ccc2ccccc2n1	1%	186%[activator]
8	CSCCC(NS(=O)(=O)c1ccc2c(c1)oc(=O)n2C)C(=O)N1CCN(c2cc(C)ccc2C)CC1 (stereo not given)	-7%	-25%
9	O=C(NCCN1CCN(S(=O)(=O)c2ccc3ccccc3c2)CC1)C(=O)Nc1ccc(F)cc1	-14%	-13%
10	Cc1nc2cc(NC(=O)c3cccc(Cl)c3)ccc2o1	-28%	0%

Three entries from above, set out differently:
Sequence of screens: StopGo RLuc, StopGo FLuc
5	O=C(CN1CCN(c2ccccc2O)CC1)Nc1ccnn1Cc1cccc(Cl)c1
  88%[activator], -8%
9	O=C(NCCN1CCN(S(=O)(=O)c2ccc3ccccc3c2)CC1)C(=O)Nc1ccc(F)cc1
  -14%, -13%
10	Cc1nc2cc(NC(=O)c3cccc(Cl)c3)ccc2o1
  -28%, 0%

New compounds follow.
entry	mol	StopGo RLuc	StopGo FLuc
11	COc1ccccc1NC(=O)CSc1nc(N2CCOCC2)c2c(c1C#N)CC(C)(C)OC2	-9%	-3%
12	COc1ccc(OC)c(NC(=O)CS(=O)(=O)Cc2nc(-c3ccc(C)cc3)oc2C)c1	-14%	-13%
13	Cc1ccc2cc(C(=O)NCc3ccc(N4CCCCCC4)nc3)c(C)nc2c1	?	?
14	CCN(CC)CCNC(=O)CN1C(=O)CSc2ccc(S(=O)(=O)N3CCOCC3)cc21	-10%	-13%
15	Cn1nc(C(=O)Nc2cccc(C(F)(F)F)c2)c2ccccc2c1=O	-5%	8%
16	CC(C)CCOc1ccc(C(=O)CCN(C)C)cc1	9%	0%
17	CCc1cc(=O)n(CC(=O)NC2CCCC2)c(-c2cccc(Cl)c2)n1	2%	-1%
18	CC(=O)c1ccc(N2C(=O)N(Cc3cc(C)ccc3C)c3ccccc3S2(=O)=O)cc1	3%	-20%
19	Cc1ccc(C23CC4CC(CC(C(=O)Nc5cc(Cl)ccc5Cl)(C4)C2)C3)cc1	7%	11%
20	O=C(NCCc1ccccc1)c1cc2sccc2n1Cc1ccc(F)cc1	-11%	-9%

Later entries.
entry	mol	StopGo RLuc	StopGo FLuc
21	CCC(CC)NC(=O)NC(C)c1ccc(Br)cc1 (stereo not given)	9%	-6%
22	Cn1c(=O)c2c(nc(NC3CCCCC3)n2CC(=O)C23CC4CC(CC(C4)C2)C3)n(C)c1=O	-22%	?
23	N#CC1=C(N)Oc2c(c(=O)[nH]c3ccccc23)C1c1ccccc1Cl (stereo not given)	0%	-12%
24	CC(CNC(=O)c1cc(=O)c2ccccc2o1)N1CCOCC1 (stereo not given)	-7%	3%
25	CCN(Cc1cccc(NC(=O)c2ccc(C3SCCCS3)cc2)c1)C(=O)C(F)(F)F	13%	0%
26	Cc1[nH]c2ccc(C(=O)OC(C)C(=O)NC3CC3)cc2c1C (stereo not given)	12%	148%[activator]
27	Cc1ccc(N2C(=O)CSC23C(=O)N(CC(=O)Nc2ccc(C(C)C)cc2)c2ccccc23)cc1C (stereo not given)	-27%	?
28	Cc1ccc(-c2csc(-c3ccccc3N)n2)cc1	27%	123%[activator]
29	COc1ccc(CCNC(=O)CSc2nc(-c3ccc4c(c3)OCO4)ccc2C#N)cc1OC	-3%	9%
30	CC(C)c1ccc(C(NC(=O)c2nn(C)c(=O)c3ccccc23)c2cccs2)cc1 (stereo not given)	34%[activator]	-1%

Next compounds follow.
entry	mol	StopGo RLuc	StopGo FLuc
31	COc1ccccc1N1CCN(C(=O)Cn2ncc3c(=O)oc4ccc(C)cc4c32)CC1	-3%	-15%
32	O=C(CN1C(=O)NC(Cc2c[nH]c3ccccc23)C1=O)Nc1cccc(F)c1 (stereo not given)	1%	8%
33	CC(=O)c1ccc(S(=O)(=O)N2CCn3cccc3C2c2ccc(F)c(F)c2)cc1 (stereo not given)	23%	-9%
34	COc1ccc(NS(=O)(=O)c2ccc(-c3cnc(C4CC4)o3)cc2)cc1OC	-13%	8.9µM*
35	O=C(NCCCN1CCN(c2ccccc2)CC1)c1ccc2nc(CCc3ccccc3)oc2c1	11%	20%
36	COc1ccc2[nH]c(C)c(CCNC(=O)c3cc4cccc(OC)c4oc3=O)c2c1	0%	-4%
37	CSc1cccc(NC(=O)C(C)Br)c1 (stereo not given)	-10%	12%
38	COc1cccc(NC(=O)c2cc(=O)c3cc(C)ccc3o2)c1	-9%	18%
39	Cc1occc1-c1nnc(SCC(=O)N2c3ccccc3CC2C)o1 (stereo not given)	21%	6%
40	O=C(NS(=O)(=O)Cc1ccccc1)c1cccc(F)c1	29%	8%

Some of the entries so far, as labelled records.
#4 CCc1ccc(NC(=O)CN(c2ccc(C)cc2)S(=O)(=O)c2c(C)nn(C)c2C)cc1
  StopGo RLuc: 17%
  StopGo FLuc: -35%
#30 CC(C)c1ccc(C(NC(=O)c2nn(C)c(=O)c3ccccc23)c2cccs2)cc1 (stereo not given)
  StopGo RLuc: 34%[activator]
  StopGo FLuc: -1%
#26 Cc1[nH]c2ccc(C(=O)OC(C)C(=O)NC3CC3)cc2c1C (stereo not given)
  StopGo RLuc: 12%
  StopGo FLuc: 148%[activator]

(more compounds)
entry	mol	StopGo RLuc	StopGo FLuc
41	CC(C)CC(=O)N1CCC(NC(=O)Cc2c[nH]c3ccccc23)CC1	?	14%
42	Cc1ccccc1C(O)(c1ccccc1C)C1CN2CCC1CC2 (stereo not given)	-18%	0%
43	CCOC(=O)c1sc(N)c(C#N)c1CSc1ccc(C)cc1C	12%	-10%
44	Cc1cc(C(C#N)c2ccc(Cl)cc2)c(Cl)cc1NC(=O)CC(C)(C)C (stereo not given)	?	?
45	CCOC(=O)c1cc(S(=O)(=O)Nc2ccc(F)c(Cl)c2)[nH]n1	34%[activator]	12%
46	CCOC(=O)c1cnc2c(OC)cccc2c1Nc1ccccc1	-26%	7%
47	Cc1ccc(-c2nn(Cc3nc(-c4ccccc4)no3)c(=O)c3ccccc23)cc1	3%	4%
48	O=C(CC1C=CCC1)NCc1ccco1 (stereo not given)	-16%	-5%
49	c1cc(OCc2nc(-c3ccsc3)no2)cc(-n2cnnn2)c1	-2%	0%
50	COc1ccc(-c2onc(C)c2C)cc1S(=O)(=O)NCCc1ccccc1	-9%	3%

Further structures
entry	mol	StopGo RLuc	StopGo FLuc
51	O=C1NC2(CCCC2)NN1c1ccccc1	2%	31%[activator]
52	CCN(C(=O)c1cc2cc3ccc(OC)cc3nc2o1)c1cccc(C)c1	42%[activator]	206%[activator]
53	CCCn1nc(C(=O)Nc2cc(S(=O)(=O)N(C)C)ccc2OC)c2ccccc2c1=O	-6%	6%
54	CNC(=O)c1ccc(Nc2nnc(-c3ccc(C)c(S(=O)(=O)N(C)C)c3)c3ccccc23)cc1	2%	3%
55	O=C(NCc1ccccn1)c1ccc2ccccc2c1	76%[activator]	213%[activator]
56	CC(=O)c1ccc(NC(=O)c2cc3ncccn3n2)cc1	3%	78%[activator]
57	Cc1ccc(CN(C(=O)c2ccccc2[N+](=O)[O-])c2ccccn2)cc1	76%[activator]	127%[activator]
58	CCc1ccccc1NC(=O)CSc1nnc(CC)c(CC)n1	-5%	-8%
59	Cc1cc(=O)oc2cc(NC(=O)Cc3ccccc3Cl)ccc12	25%	4%
60	CCCCn1c(=NC(=O)c2c(-c3c(F)cccc3Cl)noc2C)c(C(=O)OCC)cc2c(=O)n3ccccc3nc21	-5%	-10%

(listing goes on)
entry	mol	StopGo RLuc	StopGo FLuc
61	N#Cc1cnc(Nc2nc3ccccc3o2)nc1-c1ccc(Cl)cc1	-9%	0%
62	O=C(NCCc1ccccc1)c1nc(-c2ccc3cc[nH]c3c2)no1	-4%	48%[activator]
63	O=c1oc2ccccc2n1CCN1CCN(c2ccccc2F)CC1	10%	31%
64	O=C(NC1CCCC1)C1=Cc2cc(Br)ccc2OC=C1	13%	163%[activator]
65	Cc1csc(NC(=O)CCc2ncc(-c3ccc(F)cc3F)o2)n1	-4%	35%[activator]
66	COCCNCc1ccsc1	-4%	-13%
67	N#C/C(=C/c1ccc(SC(F)(F)F)cc1)c1ccccn1	-5%	106%[activator]
68	O=C(Nc1ccc(F)c(F)c1)c1cnc2ccccc2n1	2%	0%
69	COc1ccc(Cn2nnc(C(=O)Nc3ccc(F)c(F)c3)c2N)cc1Br	12%	7%
70	CC1CCN(C(=O)COC(=O)c2n[nH]c(=O)c3ccccc23)CC1	17%	0%

(continued)
entry	mol	StopGo RLuc	StopGo FLuc
71	COCCNC(=O)CN(C)c1nc(-c2ccncc2)nc2ccccc12	1%	4%
72	Cc1ccc(CC(=O)NCCc2c[nH]c3ccc(C)cc23)cc1	7%	5%
73	CC(C)=CC(=O)NC(C)c1ccc(Cl)cc1Cl (stereo not given)	-4%	-5%
74	COc1ccc(OCC(=O)Nc2cccc(-c3nc4ccccc4s3)c2C)cc1	13%	-7%
75	NC(=O)c1ccccc1OCc1ccc(C(F)(F)F)cc1	?	50%[activator]
76	CCCCN(CCCC)CCNC(=O)c1cn(CC)c2ccc(S(=O)(=O)N3CCc4ccccc4C3)cc2c1=O	-12%	0%
77	CN(C)C(=S)SSC(=S)N(C)C	-6%	2%[11.5 µM]
78	COc1ccccc1NC(=O)C1c2ccccc2Oc2ccccc21	5%	15%
79	COC(=O)COc1ccc2c(=O)c(Oc3ccccc3OC)c(C)oc2c1	-11%	-14%
80	CCCCCCCc1ccc(C(=O)Nc2ccccc2C)cc1	-5%	29%

Next section
entry	mol	StopGo RLuc	StopGo FLuc
81	CCOc1ccccc1NC(=O)Cc1csc(COc2cccc(C)c2)n1	0%	0%
82	Cc1cc(C)nc(Sc2nc(Sc3nc(C)cc(C)n3)nc(Sc3nc(C)cc(C)n3)n2)n1	?	?
83	CCn1nc(C(=O)OCC(=O)Nc2ccc(N3CCOCC3)cc2)c2ccccc2c1=O	-3%	1%
84	O=C(NCCN1CCOCC1)c1nn(-c2ccccc2)c(=O)c2ccccc12	-7%	-3%
85	COc1ccccc1N1CC(C(=O)Nc2cc(Cl)ccc2-n2cncn2)CC1=O (stereo not given)	7%	15%
86	COc1ccc(-c2csc(N3N=C(C)CC3c3ccc(OC)c(OC)c3)n2)cc1OC (stereo not given)	11%	113%[activator]
87	COc1ccc(C(=O)N/C(=C\c2cn(C)c3ccccc23)C(=O)N2CCOCC2)cc1OC	-9%	-15%
88	Cc1ccc2sc(-c3ccccc3)nc2c1	24%	76%[activator]
89	Cc1ccc(NC(=O)CCl)cc1C	?	?
90	O=C1COc2cc(S(=O)(=O)CCC(=O)N3CCN(C4CCCCC4)CC3)c(Cl)cc2N1	-12%	-5%

New compounds follow
entry	mol	StopGo RLuc	StopGo FLuc
91	CCCC(=O)Nc1cc2c(cc1Sc1ccccc1Cl)n(C)c(=O)n2C	32%[activator]	25%
92	COc1ccc(N2CCN(C(=O)Cn3cnc4sc(C)c(S(=O)(=O)N5CCCCC5)c4c3=O)CC2)cc1	-10%	-18%
93	CN(C)CCNC(=S)NCc1cccs1	38%[activator]	0%
94	Cc1ccc(Cl)cc1NC(=O)Cn1c(=O)oc2cc(S(=O)(=O)N3CCCC3)ccc21	-19%	0%
95	CCN1CCN(C(=O)Cn2c(-c3cccs3)cc3ccccc32)CC1	-5%	-4%
96	Cc1nnc2ccc(NCc3ccc(F)cc3)nn12	1%	41%[activator]
97	Cc1nc2ncnn2c(C)c1CCC(=O)Nc1ccc(S(=O)(=O)N2CCCCCC2)cc1	63%[activator]	-4%
98	CCc1noc(C)c1C(=O)Nc1ccc(NC(C)=O)cc1	-8%	-2%
99	O=[N+]([O-])c1ccc(NCCOc2ccccc2)c2ncccc12	-5%	-1%
100	CCCc1cc(=O)oc2cc(C)cc(OC(C)C(=O)NCCCN3CCOCC3)c12 (stereo not given)	6%	10%

(continued)
entry	mol	StopGo RLuc	StopGo FLuc
101	CCCOC(=O)c1c(NC(=O)C2c3ccccc3Oc3ccccc32)sc2c1CCC(C)C2 (stereo not given)	-18%	-6%
102	Cc1ccc2c(C)cc(SCC(=O)N3CCOCC3)nc2c1	-4%	-8%
103	C=CCNC(=O)N1CCN(Cc2ccc(Cl)cc2)CC1	11%	22%
104	CCc1ccc(-c2cc(C(=O)NCC3CCCO3)c3cc(C)ccc3n2)cc1 (stereo not given)	35%[activator]	132%[activator]
105	COC(=O)CN1CCCC1Cc1cccc(OC)c1 (stereo not given)	4%	1%
106	CCC1CN(C(=O)Nc2ccccc2F)c2cc(C)ccc2O1 (stereo not given)	-2%	-1%
107	Cc1nnc2ccc(SCC(=O)Nc3ccc(F)c(Cl)c3)nn12	26%	6%
108	O=C(c1ccc(C(F)(F)F)nc1)N1CCCC1c1ccncc1 (stereo not given)	-11%	-1%
109	CC(=O)Nc1ccc(S(=O)(=O)NCC2CCC(C(=O)NCCc3ccc(C)cc3)CC2)cc1 (stereo not given)	-18%	-13%
110	Cc1ccc(-c2nc(CN3CCCC3c3cccs3)co2)c(C)c1 (stereo not given)	22%	66%[activator]
